NPR1 antag: Natriuretic polypeptide receptor (hNpr1) antagonism - Primary qHTS; Atrial natriuretic peptide receptor 1 (Homo sapiens), P16066; HEK293 hNpr1 GloSensor cGMP, ANP-stimulated luminescence; Potency, µM (titrated, usually from 46.3 µM), for the others: at the highest dose activity change, negative = inhibition, actives largely listed as inhibitors; actives 1.6% (n = 76,000); active = well fitted inhibition curve with a large enough effect; inconclusive = small, poorly fitted or top-dose-only effect; inactive = no such curve, though single readings can be large or run the other way;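 also: nearly all actives have a fitted effect of over 60% in size; nearly all hits also lower the signal before the agonist is added; a reference antagonist and vehicle were the controls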
Target sequence (P16066 whole entry, looked up): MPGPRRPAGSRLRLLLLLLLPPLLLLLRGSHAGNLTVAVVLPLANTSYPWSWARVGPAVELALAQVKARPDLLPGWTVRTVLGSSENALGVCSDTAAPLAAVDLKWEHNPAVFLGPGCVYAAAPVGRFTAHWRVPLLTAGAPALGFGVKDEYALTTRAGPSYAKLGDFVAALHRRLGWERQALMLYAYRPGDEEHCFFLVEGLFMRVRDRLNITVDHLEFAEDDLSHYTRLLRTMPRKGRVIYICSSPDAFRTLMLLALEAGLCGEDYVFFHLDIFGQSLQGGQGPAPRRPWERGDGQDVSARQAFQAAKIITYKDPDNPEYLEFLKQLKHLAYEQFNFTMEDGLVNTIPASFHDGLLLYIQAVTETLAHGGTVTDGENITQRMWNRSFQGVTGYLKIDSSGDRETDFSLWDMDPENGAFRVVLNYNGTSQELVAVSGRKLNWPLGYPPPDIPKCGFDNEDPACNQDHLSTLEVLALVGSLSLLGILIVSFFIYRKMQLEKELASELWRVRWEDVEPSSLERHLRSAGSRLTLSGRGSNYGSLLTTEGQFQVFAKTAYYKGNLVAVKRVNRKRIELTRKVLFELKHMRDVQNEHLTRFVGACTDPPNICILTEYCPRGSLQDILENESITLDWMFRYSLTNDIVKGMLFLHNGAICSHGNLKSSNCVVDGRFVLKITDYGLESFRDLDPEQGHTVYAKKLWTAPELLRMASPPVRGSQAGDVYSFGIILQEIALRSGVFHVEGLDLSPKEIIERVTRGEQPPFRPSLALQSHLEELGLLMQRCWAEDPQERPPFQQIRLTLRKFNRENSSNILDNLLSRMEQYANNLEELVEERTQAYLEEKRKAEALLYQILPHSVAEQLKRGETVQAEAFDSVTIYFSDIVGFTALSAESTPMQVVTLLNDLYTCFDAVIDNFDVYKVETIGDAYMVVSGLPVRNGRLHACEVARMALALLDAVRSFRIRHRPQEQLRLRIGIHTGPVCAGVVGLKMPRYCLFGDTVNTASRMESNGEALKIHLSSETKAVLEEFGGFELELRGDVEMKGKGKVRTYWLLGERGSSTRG
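Compound pre-incubated 30 min at room temperature on GloSensor-loaded HEK293 cells stably carrying hNpr1 and the pGS-40F cGMP biosensor. Stimulation uses hNppA at 0.1 nM final; luminescence is taken at baseline and 20 min post-agonist.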
Starred values were filed as active, the others as inactive; u = inconclusive; [ ] = dose if it differs, or a comment. % is scaled to controls: 0 for no effect and ±100 for the full control effect; potency is read from the fitted curve at half-maximal effect. Some of the compounds tested (hit frequency here may not be typical).

Start of the data: the first two compounds, ahead of the listing:
SMILES	NPR1 antag
O=C(NC1CCN(c2cc(-c3cccs3)[nH]n2)C1)c1cccnc1 (centres undefined)	0%
O=c1c2nc(NCc3ccccc3)ccc2ncn1Cc1ccccc1	2%[70.6 µM]

The list itself, from the start:
SMILES	NPR1 antag
O=C(NC1CCN(c2cc(-c3cccs3)[nH]n2)C1)c1cccnc1 (centres undefined)	0%
O=c1c2nc(NCc3ccccc3)ccc2ncn1Cc1ccccc1	2%[70.6 µM]
O=C(NCC1CCCO1)N1CCc2c(nc3cc(-c4ccccc4Cl)[nH]n3c2=O)C1 (centres undefined)	-13%
CS(=O)(=O)N1CC(c2nc(Cc3ccccc3)no2)C1	5%
O=C(NC1CCN(c2cc(-c3ccccc3)[nH]n2)C1)c1ccc(F)c(Cl)c1 (centres undefined)	-12%
COCc1nc2nccc(-c3ccc(Br)s3)n2n1	0%
O=C(c1ccc2cc[nH]c2c1)N1CCC(Cc2nncn2CC2CC2)C1 (centres undefined)	-11%
Cn1cc(CN2C[C@H](C(=O)Nc3ccccn3)C[C@@H]2c2cccc(C(F)(F)F)c2)cn1	-16%[70.6 µM]
CCN(C(=O)CCC(=O)NCCc1noc(-c2cccnc2)n1)c1ccccc1	11%
CCCS(=O)(=O)N1CC(Oc2ccccc2-c2noc(C)n2)C1	16%
COc1ccccc1-c1cc(NCCc2ccccn2)c2onc(C)c2n1	1%[70.6 µM]
COc1cccc(CNC(=O)N2CCC(c3cc(-c4cccc(OC)c4)n[nH]3)CC2)c1	u
O=C(CN1CCCc2nc(C3CC3)ncc2C1=O)NCCCN1CCc2ccccc2C1	1%
Cc1cc(N2CCC3(CC2)CC(c2ccccc2)C(=O)N3C)ncn1 (centres undefined)	2%
O=C(O)c1cc(Br)cc(S(=O)(=O)N2CCOCC2)c1	1%
CC[C@H]1CN(C(=O)c2ccccc2)CC[C@H]1CC(=O)N1CCC(C(N)=O)CC1	-1%[70.6 µM]
CS(=O)(=O)N1CCOc2ccc(CCC(=O)NC3CCS(=O)(=O)C3)cc2C1 (centres undefined)	8%
COc1cccc(CN2CCOC3CCN(Cc4cccc(F)c4)CC3C2=O)c1 (centres undefined)	1%[70.6 µM]
COc1ccc(-c2cc(C(=O)N3C[C@@H](Oc4ccccc4)C[C@H]3C(=O)NC3CC3)[nH]n2)cc1	4%
COc1ccc(-c2noc([C@@H](C)NCc3ccc(C#N)cc3)c2C(=O)O)cc1	4%[70.6 µM]
COCc1nncn1C1CCN(C(=O)c2ccc(F)c(Cl)c2)CC1	1%
COc1cc(OC)cc(C(=O)Nc2ccc3c(c2)CN(Cc2ccccc2)C(=O)C(C)O3)c1 (centres undefined)	-14%
CCc1cc(=O)n(CC(=O)Nc2ccc(OC)c(OC)c2)c(-c2cccc(F)c2)n1	-25%
CCN(CC)Cc1cnc2c(C(=O)NC3(C(N)=O)CCCC3)cnn2c1	4%
Cc1ccc(C2Cn3nnc(-c4nc(-c5cccc(Cl)c5)no4)c3CO2)c(C)c1 (centres undefined)	1%
COc1ccc(CN2Cc3cc(NC(=O)Cc4ccc(F)cc4)ccc3OCC2=O)c(OC)c1	-15%
COCC(=O)N[C@H]1C[C@@H](Cc2cc(-c3ccc(OC)cc3)on2)C1(C)C	-14%[70.6 µM]
Cc1ccc(NC(=O)N2CCC(N3CC4CC(C3)[C@H]3CCCC(=O)N3C4)CC2)cc1 (some centres undefined)	-1%
Cn1cc(C(=O)N2CCCCCCNC(=O)[C@@H]3C[C@@H](c4nc(Cc5ccccc5)no4)C[C@@H]32)cn1	-9%
O=C(CN1CC2CC(C1)[C@H]1CCCC(=O)N1C2)N1CCc2ccccc21 (some centres undefined)	1%
Cc1ccc(NC(=O)N(C)CC2CCOC2)cc1 (centres undefined)	3%
Cc1ccccc1CN1CC[C@H](c2nnc(-c3cncn3C)o2)C1	-1%[70.6 µM]
CCCc1cc(C(=O)N2CCN(C)C3(CCC(=O)N(CC)CC3)C2)n(C)n1 (centres undefined)	-2%
COC(=O)[C@@H]1Cc2c([nH]c3ccccc23)[C@H]2C[C@@H](NCc3cccnc3)C[C@@H](c3ccc(OC(F)(F)F)cc3)N21	6%
COc1ccc(CCN2CC(NCc3ccc4c(c3)OCCO4)CC2=O)cc1 (centres undefined)	-5%
Cc1c(Cl)c(C(=O)N2CCCC(C)(Cc3ccc4c(c3)OCO4)C2)nn1C (centres undefined)	-23%

Quoted at random: five compounds from above, in no set order.
SMILES	NPR1 antag
CS(=O)(=O)N1CCOc2ccc(CCC(=O)NC3CCS(=O)(=O)C3)cc2C1 (centres undefined)	8%
CCCc1cc(C(=O)N2CCN(C)C3(CCC(=O)N(CC)CC3)C2)n(C)n1 (centres undefined)	-2%
O=c1c2nc(NCc3ccccc3)ccc2ncn1Cc1ccccc1	2%[70.6 µM]
COc1ccccc1-c1cc(NCCc2ccccn2)c2onc(C)c2n1	1%[70.6 µM]
Cc1ccccc1CN1CC[C@H](c2nnc(-c3cncn3C)o2)C1	-1%[70.6 µM]

Continuation:
SMILES	NPR1 antag
Cc1cc(S(=O)(=O)N2CCCN(C)c3ccccc32)ccc1F	-13%
COCCN1C(=O)[C@H]2CN(Cc3cccc(C)c3)C[C@H]2C1=O	11%
Cn1cc(C(=O)NCC2CN(C(=O)c3cc4ccccc4n3C)CC23CN(c2ccccc2)C3)cn1 (centres undefined)	-5%
COc1ccc(CN2CCC3(CC(C)=NO3)C2)cc1 (centres undefined)	0%[70.6 µM]
CS(=O)(=O)N1C[C@H]2CCN(C(=O)c3ccc4cc[nH]c4c3)C[C@H]21	4%
COCCC(=O)N1CCCC(c2nc(CCOc3cccc(C)c3)no2)C1 (centres undefined)	1%
CN1CCN(C(=O)[C@@H]2C[C@H](C(=O)O)CN(Cc3cccc(F)c3)C2)CC1	7%
CCC(=O)N1CCC(Oc2nccnc2N2CCOCC2)C1 (centres undefined)	-1%
COc1c[nH]c(CN2CCCC(Nc3ccc(C(C)C)cc3)C2)cc1=O (centres undefined)	u
Clc1cnccc1CN1CCNc2cc(-c3ccccc3)ncc2C1	-16%[70.6 µM]
O=C(NC1CCCCC1)C1CN(C(=O)c2ccc(Br)o2)CC12CCOCC2 (centres undefined)	-2%
CN(C)Cc1nnc(C2CC(NC(=O)CSCC3CC3)C2)n1C (centres undefined)	3%

Ordered by value in NPR1 antag (highest first): four of the compounds above.
| smiles | NPR1 antag |
| --- | --- |
| CN1CCN(C(=O)[C@@H]2C[C@H](C(=O)O)CN(Cc3cccc(F)c3)C2)CC1 | 7% |
| CS(=O)(=O)N1C[C@H]2CCN(C(=O)c3ccc4cc[nH]c4c3)C[C@H]21 | 4% |
| CN(C)Cc1nnc(C2CC(NC(=O)CSCC3CC3)C2)n1C (centres undefined) | 3% |
| O=C(NC1CCCCC1)C1CN(C(=O)c2ccc(Br)o2)CC12CCOCC2 (centres undefined) | -2% |

Further compounds follow.
SMILES	NPR1 antag
O=C(NCc1ccc(F)cc1)c1ccc(N2CC3CC(C2)[C@H]2CCCC(=O)N2C3)nc1 (some centres undefined)	-6%
COc1ccc(-c2cc(N3CCN(C(=O)Cc4ccc(C)cc4)CC3)n[nH]2)cc1	-21%
O=C(C1CC1)N(C1CCOCC1)C1CCN(S(=O)(=O)c2cc(F)cc(F)c2)CC1	1%
O=C(c1cc(F)ccc1F)N1CCCCCC1c1nnc(-c2ccccc2)o1 (centres undefined)	0%
COCCCNC(=O)C1c2ccccc2C(=O)N(C2CCCC2)C12CCCCC2 (centres undefined)	3%
O=C(c1ccc(-n2cnnn2)cc1O)N1CCCC(CCc2ccc(F)cc2)C1 (centres undefined)	u
Cc1ccccc1N1CCN(C(=O)Cn2nc3n(c2=O)CCC(N)CC3)CC1 (centres undefined)	4%
CN(C)c1cccc(C(=O)NCC2CCN(c3cc(-c4ccc(Cl)cc4)[nH]n3)CC2)c1	-27%
COCCOc1cc(=O)n2c(c1C(=O)NC1CCCCCC1)CCOCC2	2%
c1ccc(OCc2cc(CC3(NC4CCC4)COC3)no2)cc1	3%[70.6 µM]
O=C(N[C@@H]1CCOC[C@H]1Oc1ccccn1)c1ccc(N2CCCC2=O)cc1	4%
Fc1ccc(-c2ccnc3ncnn23)cc1	9%
CCN(Cc1ccccc1)C(=O)CC1CCCN(c2cnn(C)c(=O)c2)C1 (centres undefined)	0%
CN1CCC(N2CCN(C(=O)CCC3CCCCC3)CC2)C1=O (centres undefined)	2%
CCc1cnc(C)nc1N1CCCn2nc(CCC(=O)NC3CC3)cc2C1	5%
C#CCNC(=O)[C@@H]1Cc2cn(Cc3nccn3C)c3cccc(c23)[C@H](CC(C)C)N1	2%[70.6 µM]
O=C(NCc1nnc2ccc(-c3ccccc3)nn12)c1ccc(F)cc1Cl	3%
COc1ccc(CN2CC3(CCN(C(=O)Cc4c[nH]c5ccccc45)CC3)C2=O)cc1	u
COCCNC(=O)C(C)[C@@H]1CCc2c(C)cc(OC)c(C)c2C1 (some centres undefined)	0%[70.6 µM]
COCc1cn(C[C@H]2C[C@@H](NC(C)=O)[C@H](O)[C@@H]2O)nn1	0%[70.6 µM]
O=S(=O)(CCN1CCCn2nc(CO)cc2C1)c1ccccc1	-2%
Cc1nc(CCC(=O)NCc2ccc3[nH]c(-c4ccccc4F)c(C)c3c2)n[nH]1	-1%
COc1ccccc1C1NC(=O)N(CCC(C)C)C2=C1C(=O)OC2 (centres undefined)	-11%
COCCCNC(=O)CN1C(=O)COc2ccc(C(=O)COc3ccc(OC)cc3)cc21	0%
O=C(NCCc1cnc[nH]1)C1CCN(C2CCCCC2)CC1	6%
O=C1CCNCCCC(C(=O)NCc2ccccc2)CCN1 (centres undefined)	-6%
O=C(Nc1ccc(Cl)cc1)N1CCn2c(nnc2C2CC2)C1	-2%[70.6 µM]
CNCCN1C(=O)CC[C@H]2CN(C(=O)Cc3cccs3)CC[C@H]21	u
Cc1ccc(C(=O)N2CCc3nc(C)nc(-c4ccc(O)cc4)c3C2)cc1	3%
COc1cccc(-c2ccc(NC(=O)C3CCCN3C(=O)CNC(C)=O)cc2)c1 (centres undefined)	0%
COc1ccc(C(=O)NCC2CCCCC(=O)N2)cc1 (centres undefined)	3%
CC(=O)Nc1ccc(C)cc1S(=O)(=O)NCCn1c(C)cnc1C1CCC1	0%
Cc1ccc(CN2CCC3(CC2)CN(c2ncccn2)CC3CO)cc1C (centres undefined)	3%
CC(=O)N[C@H]1CC[C@]2(C)CC[C@@H](C(C)C(=O)NC3CCCC3)[C@H](O)[C@H]2[C@@H]1C (some centres undefined)	3%[70.6 µM]
O=C1CCCCC(CNC(=O)c2ccccc2)N1 (centres undefined)	-6%
C[C@@H]1CN(C(=O)NCc2ccco2)C[C@H]1c1nc(-c2ccncc2)no1	1%
Cc1cccc(CN2CCNc3cnc(-c4ccccc4)cc3C2)c1	-25%[70.6 µM]
Cc1cccc(O[C@H]2COCCN(c3nc4ccccc4o3)C2)n1	-22%[70.6 µM]
COc1ccc(F)c(CN2CCCC(O)(CN3CCCCC3)C2=O)c1 (centres undefined)	-1%
O=C1NC2(CCN(C(=O)Cc3ccccc3)CC2)Oc2ccccc21	-2%[70.6 µM]
O=C(Nc1ccc(Cl)cc1)N1CCC2(CC1)CC(=O)N(c1ccccc1)c1ccccc1O2	5%
CN(C)C(=O)c1n[nH]c2c1CN(S(=O)(=O)c1ccccc1)CC2	-5%
CC(C)(C)c1ccc(-c2nc(C3CC(=O)N(c4ccc(F)cc4)C3)no2)cc1 (centres undefined)	-2%
CC(C)N(C)C(=O)CN1C(=O)C2(CCNCC2)Nc2ccccc21	-2%
COc1ccc(-c2noc(N(C)Cc3ccccc3)n2)cc1OC	4%
CCN(C(=O)Cn1cccc1-c1nc(-c2ccccc2)no1)c1cccc(C)c1	-9%
CN(C)CC(=O)Nc1ccc(C(=O)N2CCCC3(CCNC3)C2)cc1 (centres undefined)	5%
COc1ccc2c(c1)nc1n2[C@@H](CNS(=O)(=O)c2ccc(C#N)cc2)COC1	-1%[70.6 µM]
O=C(Cn1ccn2nc3c(c2c1=O)CCCC3)Nc1ccc2c(c1)OCO2	5%
CN1CCC(Oc2ncccc2C(=O)NCCc2ccccn2)CC1	-2%
COc1cncc(-c2nc(-c3c(C)noc3C)cc3c2cc(C)n3CCN(C)C)c1	-6%[70.6 µM]
O=C(c1cc(F)ccc1F)N1CCCC(n2cc(-c3nc(-c4ccccc4)no3)nn2)C1 (centres undefined)	11µM*
CCn1ncc(NC(=O)Cn2cc(-c3ncnc4ccsc34)cn2)n1	4%
O=C1c2c(nc(CNC3CCOCC3)n2Cc2ccccc2)NCCN1CC1CC1	-1%[70.6 µM]
COCCNC(=O)N1CCC2(CC1)CN(C)CC2COC (centres undefined)	0%
O=C(COc1ccc(F)cc1)N1CCCN(C(=O)C2CC2)c2ccccc21	4%
CC(C)CN(CC(C)C)C(=O)CC1C(=O)NCCN1Cc1cccs1 (centres undefined)	-2%
O=C(CCC1CCN(c2cc(NC3CC3)ncn2)CC1)NCc1cc(F)cc(F)c1	u
CCC(C(=O)NCc1cc2c(cc1OC)CCC2)n1cccn1 (centres undefined)	-2%
O=C(Nc1cc(F)cc(F)c1)N1CC(c2nnc(-c3ccncc3)o2)C2(CCOCC2)C1 (centres undefined)	0%

Structural class, those above containing bromine (3)
SMILES	NPR1 antag
COCc1nc2nccc(-c3ccc(Br)s3)n2n1	0%
O=C(O)c1cc(Br)cc(S(=O)(=O)N2CCOCC2)c1	1%
O=C(NC1CCCCC1)C1CN(C(=O)c2ccc(Br)o2)CC12CCOCC2 (centres undefined)	-2%
